HepG2 viability: HepG2 cell cytotoxicity, dose response, cytotoxicity control, ATP luminescence, cherry-pick, activator set 2 (AID 1053143). HepG2 viability, CellTiter-Glo ATP luminescence, 72 h. AC50 in µM for hits, for the others activity change, negative = cytotoxicity, % at the top dose, mostly 26 µM. 3,400 tested, 3.7% active;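 active = fitted AC50 at most twice the highest valid dose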;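 note: 0 = neutral control and -100 = positive control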
Starred values were filed as active, the others as inactive; [ ] = another dose, or the depositor's remark. This is a subset; rates above refer to the full screens.

The first 24 compounds (preview)
cpd	structure	HepG2 viability
1	CCc1nnc(NC(=O)CSc2ncnc3c2cnn3-c2ccc(OC)cc2)s1	-10.0%
2	Cc1ccc(S(=O)(=O)N2CCCC(C(=O)Nc3ccc(NC(=O)c4ccccn4)cc3)C2)cc1 (centres undefined)	-8.3%
3	Clc1ccc(-c2nnc(N3CCCC3)nn2)cc1	-8.1%
4	Cc1cc(C)nc(NC(=O)/C=C/c2ccc3c(c2)OCO3)c1	-26.9%
5	COc1cc(C#Cc2ccc3cc(CCO)oc(=O)c3c2)cc(OC)c1	-0.8%
6	COc1ccc(NC(=O)Nc2ccc(N(C)C)cc2)cc1	-0.7%
7	Nc1nc(CSc2ccccn2)nc(Nc2ccccc2)n1	-20.0%
8	Cc1cc(O)c(C(=O)/C=C/c2ccc(C(C)C)cc2)c(=O)o1	-9.3%
9	COc1cc(C=O)ccc1OCc1cccc(Br)c1	-10.5%
10	CCOC(=O)N1CCN(C(=O)c2ccc3oc(CCCc4ccccc4)nc3c2)CC1	-12.7%
11	O=C(Cn1cnc2c(oc3ccccc32)c1=O)c1ccccc1	15.5%
12	CC(=O)c1ccc(Nc2ccc(-c3ccccc3F)nn2)cc1	-13.5%
13	CCc1cc2cc(C(=O)Nc3ccc(F)cc3)sc2s1	-14.0%
14	CCOc1ccc(CCNC(=O)COc2cc(=O)n(C)c3ccccc23)cc1OCC	-15.5%
15	CCOc1ccc2nc(SCC(=O)c3cccs3)sc2c1	-14.1%
16	Cc1ccc(/C=N/NC(=O)c2ccco2)cc1	8.0%
17	O=C(C1=C(O)C(=O)N(c2nc3ccc(Cl)cc3s2)C1c1ccco1)c1ccco1 (centres undefined)	-5.7%
18	CN(C(=O)c1cc(-c2ccccc2)on1)C1CCCCC1	-5.2%
19	O=C(Nc1nc2ccc([N+](=O)[O-])cc2s1)c1ccco1	-10.7%
20	COc1ccc(CN2C(=O)c3cccc4cccc(c34)C2=O)cc1	-12.5%
21	O=C(Nc1cccnc1Cl)c1noc2c1CCc1ccccc1-2	-16.5%
22	Cc1ccc(C(=O)Nc2nc3c(s2)CCCC3)o1	-19.8%
23	COc1ccc(NC(=O)NCCC2=CCCCC2)cc1	-6.6%
24	Cc1ccccc1Nc1nn2c(=O)c3ccccc3nc2s1	-18.2%

The listing, from the first entry:
cpd	structure	HepG2 viability
1	CCc1nnc(NC(=O)CSc2ncnc3c2cnn3-c2ccc(OC)cc2)s1	-10.0%
2	Cc1ccc(S(=O)(=O)N2CCCC(C(=O)Nc3ccc(NC(=O)c4ccccn4)cc3)C2)cc1 (centres undefined)	-8.3%
3	Clc1ccc(-c2nnc(N3CCCC3)nn2)cc1	-8.1%
4	Cc1cc(C)nc(NC(=O)/C=C/c2ccc3c(c2)OCO3)c1	-26.9%
5	COc1cc(C#Cc2ccc3cc(CCO)oc(=O)c3c2)cc(OC)c1	-0.8%
6	COc1ccc(NC(=O)Nc2ccc(N(C)C)cc2)cc1	-0.7%
7	Nc1nc(CSc2ccccn2)nc(Nc2ccccc2)n1	-20.0%
8	Cc1cc(O)c(C(=O)/C=C/c2ccc(C(C)C)cc2)c(=O)o1	-9.3%

cpd	structure	HepG2 viability
9	COc1cc(C=O)ccc1OCc1cccc(Br)c1	-10.5%
10	CCOC(=O)N1CCN(C(=O)c2ccc3oc(CCCc4ccccc4)nc3c2)CC1	-12.7%
11	O=C(Cn1cnc2c(oc3ccccc32)c1=O)c1ccccc1	15.5%
12	CC(=O)c1ccc(Nc2ccc(-c3ccccc3F)nn2)cc1	-13.5%
13	CCc1cc2cc(C(=O)Nc3ccc(F)cc3)sc2s1	-14.0%
14	CCOc1ccc(CCNC(=O)COc2cc(=O)n(C)c3ccccc23)cc1OCC	-15.5%
15	CCOc1ccc2nc(SCC(=O)c3cccs3)sc2c1	-14.1%
16	Cc1ccc(/C=N/NC(=O)c2ccco2)cc1	8.0%

cpd	structure	HepG2 viability
17	O=C(C1=C(O)C(=O)N(c2nc3ccc(Cl)cc3s2)C1c1ccco1)c1ccco1 (centres undefined)	-5.7%
18	CN(C(=O)c1cc(-c2ccccc2)on1)C1CCCCC1	-5.2%
19	O=C(Nc1nc2ccc([N+](=O)[O-])cc2s1)c1ccco1	-10.7%
20	COc1ccc(CN2C(=O)c3cccc4cccc(c34)C2=O)cc1	-12.5%
21	O=C(Nc1cccnc1Cl)c1noc2c1CCc1ccccc1-2	-16.5%
22	Cc1ccc(C(=O)Nc2nc3c(s2)CCCC3)o1	-19.8%
23	COc1ccc(NC(=O)NCCC2=CCCCC2)cc1	-6.6%
24	Cc1ccccc1Nc1nn2c(=O)c3ccccc3nc2s1	-18.2%

no. | molecule | HepG2 viability
25 | Cc1ccc(OC(=O)COc2ccccc2)c(-n2nc3ccccc3n2)c1 | -7.1%
26 | COc1ccc(CN2C(=O)C(C)S/C2=N/N=C/c2ccco2)cc1 (centres undefined) | -1.0%
27 | CCCC(=O)OCC(=O)Nc1ccc(N=Nc2ccccc2)cc1 | -11.8%
28 | Cc1ccc2c(c1)COc1c3ccc(C(=O)N[C@@H](CO)C(C)C)cc3nn1-2 | -16.4%
29 | O=C(Nc1ccc(Cl)cc1)NC1CCCCC1 | -12.9%
30 | Fc1ccc(SCCc2ccccn2)cc1 | -10.7%
31 | Cc1ccc(NC(=O)c2cc(-c3cccs3)on2)cc1C | 12.4%
32 | CC(Sc1nncn1C)C(=O)Nc1ccc(N2CCCCC2)cc1 (centres undefined) | -9.1%
33 | Cc1ccnc2ccc(-c3nc4ccccc4o3)cc12 | -12.9%
34 | O=c1c(-c2ccccc2)nc2ccccc2n1C(c1ccccc1)c1nc2ccccc2[nH]1 (centres undefined) | -0.3%

no. | molecule | HepG2 viability
35 | Cc1ccc(CNC(=O)c2ccc(Cn3cc(-c4ccc(C)cc4)nc3-c3ccncc3)cc2)cc1 | 9.6%
36 | COc1ccc(Nc2ccc3ccccc3c2)cc1 | 0.9%
37 | CCC(=O)Nc1cc(C(=O)OCC(=O)c2ccccc2)ccc1C | -21.2%
38 | O=C(COC(=O)CC1CCCC1)Nc1cc2c(cc1Cl)C(=O)c1ccccc1C2=O | -25.4%
39 | Cc1cc(NCc2ccccn2)n2ncc(-c3ccccc3)c2n1 | 26µM*
40 | COc1ccc(NC(=O)Nc2ccc3oc(C)nc3c2)cc1 | 9.6%
41 | CC(=O)Nc1cc(-c2ccc(N3CCN(C)CC3)cc2)cn2c(-c3ccccc3)cnc12 | -17.8%
42 | Cc1ccc(C2=NN(C(=O)c3ccco3)C(O)(C(F)(F)F)C2)cc1 (centres undefined) | 0.6%
43 | Fc1ccccc1-c1nc2ccccc2[nH]1 | -18.6%
44 | COc1ccc(N=C(C)c2sc3ccccc3c2O)cc1 | 4.0%

no. | molecule | HepG2 viability
45 | COc1ccc(NC(=O)c2cc(C)n(Cc3cccs3)c2C)cc1 | -9.6%
46 | COc1ccc(-c2nc3nc(C)cc(C)n3n2)cc1 | -15.3%[12 µM]
47 | Cc1csc2nc(CSc3nc4ccccc4o3)cn12 | 5.7%
48 | Nc1ccc2c(c1)C/C(=C/c1ccco1)C2=O | -4.3%
49 | c1ccc(-c2nc3ccccc3[nH]2)cc1 | -19.3%
50 | COc1cccc(-c2cc(C(=O)N3CCCCCC3)no2)c1 | -12.2%
51 | Brc1ccc(-n2cnc(-c3ccccc3)c2)cc1 | -4.2%
52 | CC1=Nc2ccccc2N=C(N)C1c1ccccc1 (centres undefined) | -8.2%
53 | CC(=O)Nc1ccc2c(c1Br)Cc1ccccc1-2 | -7.2%
54 | COC(=O)c1c(-c2ccc(OC)cc2)sc2cc3c(cc12)OCO3 | 2.2%
55 | CC(C)Cc1cc(C(=O)Nc2ccc(Br)cc2)no1 | -10.3%
56 | c1ccc2c(Nc3nc4c(s3)CCCC4)cccc2c1 | 7.7%

Bioassay records from PubChem BioAssay.
